MITF inh – blocks MITF activity; AID 2240; TRPM1 promoter luciferase, luminescence, 24 h; inhibition, % (concentration not given with the values); 0.28% of 37,000 active;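 active = most replicates at 85% or more, or half of them and the mean; inconclusive = half reach 85% but not the mean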;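 also: human melanocyte line stably carrying TRPM1 promoter luciferase reporter; 0% = vehicle wells and 100% = a positive control; the first replicate is given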
PD-1 reversal – activators reversing PD-1 mediated T-cell inhibition; AID 2316; primary human CD4 T cells, PD-L1 beads, CellTiter-Glo 96 h; activation, % (no concentration beside the values); 29,000 tested, under 10 active;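 active = replicate mean of 50% or more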;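 also: 0% = median vehicle wells and 100% = positive control; 100 nL library stock added to about 50 µL; numbers are from one replicate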
Hedgehog inh – Sonic Hedgehog pathway inhibition; Shh-LIGHT2 Gli-luciferase reporter, 30 h; inhibition, % (no concentration beside the values); 2.1% of 22,000 active;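 active = replicate mean of 65% or more; inconclusive = mean lower but half the replicates past it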;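 also: pathway switched on by Shh-conditioned medium diluted 1 in 25 in low serum; 100 nL library stock added to about 40 µL; 0% = median of neutral wells and 100% = positive control level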
YB-1 expr inh – YB-1 expression inhibition; 0.37% of 30,000 active; AID 434959; U2OS, qRT-PCR YB-1 vs CDIP delta delta Cp, 16 h; stronger effect = higher value; zero = DMSO, each unit about twofold; delta delta Cp (YB-1 minus CDIP) (concentration not given with the values);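 active = delta delta Cp rounded down to an integer at or above 3, about 3 SD of DMSO wells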;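 also: higher means less YB-1 transcript or more CDIP transcript relative to DMSO; stock transfer was 100 nL into about 100 µL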
Numbers without * were called inactive; ? = inconclusive; / = not tested or not shown. A portion of the library; the hit share may differ from the screen's.

SMILES | MITF inh | PD-1 reversal | Hedgehog inh | YB-1 expr inh
CC(C)NC(=O)N(C)C[C@@H]1Oc2ccc(NS(=O)(=O)c3cccs3)cc2C(=O)N([C@@H](C)CO)C[C@H]1C | -2 | 0.4 | / | 0.038
COc1ccc(NC(=O)Nc2ccc3c(c2)CC(=O)N([C@H](C)CO)C[C@@H](C)[C@H](CN(C)S(=O)(=O)c2ccc(F)cc2)O3)cc1 | 6 | / | -67 | 0.3
Cc1noc(C)c1S(=O)(=O)N(C)C[C@H]1Oc2ccc(NC(=O)C3CCCCC3)cc2CC(=O)N([C@H](C)CO)C[C@H]1C | 2 | -1.3 | -55 | -0.12
O=C(CSc1ncnc2scc(-c3ccccc3)c12)Nc1cccc(Cl)c1Cl | 2 | -3.4 | / | /
CC(C)NC(=O)N(C)C[C@@H]1Oc2c(NC(=O)C3CC3)cccc2C(=O)N([C@@H](C)CO)C[C@H]1C | -14 | 0.0 | 21 | 0.14
C[C@@H]1O[C@@H](Oc2ccc(C3Oc4cc(O)cc(O)c4C(=O)C3O)cc2O)[C@H](O)[C@H](O)[C@H]1O (stereo partly specified) | / | / | -13 | 1.2
COc1ccc(C(=O)Nc2sc3c(c2C(=O)NC2CCS(=O)(=O)C2)CCCC3)cc1OC (stereo unspecified) | 7 | 0.6 | / | /
C[C@H](CO)N1C[C@H](C)[C@H](CN(C)Cc2ccc(Oc3ccccc3)cc2)Oc2c(NC(=O)CCCCCC(=O)Nc3ccccc3N)cccc2C1=O | 26 | -0.2 | / | 0.079
C[C@H](CO)N1C[C@H](C)[C@H](CN(C)Cc2ccc(C(=O)O)cc2)Oc2c(NS(=O)(=O)c3ccc(Cl)cc3)cccc2C1=O | 0 | 2.9 | -14 | 0.072
COc1ccc(CN(C)C[C@@H]2Oc3ccc(NS(=O)(=O)c4ccc(OC)cc4)cc3C(=O)N([C@H](C)CO)C[C@H]2C)cc1 | -8 | 5.8 | / | 0.55
COC1OC2COC(c3ccccc3)OC2C(O)C1O (stereo unspecified) | -5 | 2.1 | / | 0.22
C[C@H]1CN([C@@H](C)CO)C(=O)c2cccc(NC(=O)Nc3ccc4c(c3)OCO4)c2O[C@@H]1CN(C)S(=O)(=O)c1ccccc1 | -17 | / | 2 | -0.21
C[C@H]1CN([C@@H](C)CO)C(=O)c2cc(NC(=O)c3ccncc3)ccc2O[C@@H]1CN(C)Cc1ccc(Cl)c(Cl)c1 | -16 | 2.0 | -1 | 0.099
C[C@@H]1[C@H]2[C@H](OC3O[C@H](CO)[C@@H](O)[C@H](O)[C@H]3O)OC=C(C(=O)O)[C@H]2C[C@@H]1O (stereo partly specified) | 13 | 0.9 | -2 | 0.046
Cc1c(C#N)c(Sc2ccccc2Cl)nc2ccccc12 | -20 | 6.5 | 17 | 0.43
COC(=O)c1ccccc1NC(=O)C(C)(C)Oc1ccc(Cl)cc1 | -18 | -1.9 | / | /
COC(=O)c1ccccc1NC(=O)C1=C(C)NC(=S)NC1c1ccc(OC2CCCC2)c(OC)c1 (stereo unspecified) | 4 | -2.7 | / | /
COc1ccc(S(=O)(=O)N(C)C[C@@H]2Oc3c(NC(=O)c4ccc(-c5nccs5)cc4)cccc3C(=O)N([C@H](C)CO)C[C@@H]2C)cc1 | -8 | -1.7 | 25 | 0.11
C[C@H](CO)N1C[C@H](C)[C@@H](CN(C)S(=O)(=O)c2cn(C)cn2)Oc2ccc(NC(=O)Cc3cn(C)c4ccccc34)cc2C1=O | 11 | / | -21 | 0.36
O=C(Cn1cnc2ccccc2c1=O)Nc1ccc(Cl)c(Cl)c1 | -8 | -1.1 | / | /
COc1ccc(S(=O)(=O)N(C)C[C@H]2Oc3c(NC(=O)NC4CCCCC4)cccc3C(=O)N([C@@H](C)CO)C[C@@H]2C)cc1 | 2 | 2.2 | -37 | -0.05
Cc1ccc(C(=O)NC(=O)CSc2nnnn2-c2ccccc2)cc1 | -22 | 1.1 | / | /
COc1ccc(OC)c(NC(=O)C(C)NS(=O)(=O)c2ccc(C)cc2)c1 (stereo unspecified) | -17 | 0.1 | / | /
C[C@@H]1CN([C@H](C)CO)C(=O)c2cc(NC(=O)Nc3ccc(C(F)(F)F)cc3)ccc2O[C@@H]1CN(C)S(=O)(=O)c1ccc(Cl)cc1 | 34 | -1.5 | 13 | 0.31
C[C@@H]1CN([C@@H](C)CO)C(=O)c2cccc(NC(=O)c3ccc(-c4nccs4)cc3)c2O[C@H]1CN(C)Cc1ccc(C(=O)Nc2ccccc2N)cc1 | 38 | -0.7 | / | -0.5
Cc1ccc(S(=O)(=O)N(C)c2ccc(C(=O)Nc3cccnc3)cc2)cc1 | -22 | -2.8 | / | /
C=CCn1cnc2c1c(=O)[nH]c(=O)n2C | -8 | 1.6 | 1 | 0.016
C[C@@H]1CCCCO[C@@H](CN(C)S(=O)(=O)c2ccc(Cl)cc2)[C@@H](C)CN([C@H](C)CO)C(=O)c2cc(NS(=O)(=O)c3ccc(F)cc3)ccc2O1 | 48 | / | 25 | 0.36
C[C@H]1CN([C@@H](C)CO)C(=O)c2cccc(NC(=O)Nc3ccc(C(F)(F)F)cc3)c2O[C@@H]1CN(C)S(=O)(=O)c1cccs1 | -2 | 0.8 | -6 | -0.37
COc1ccc(NC(=O)Nc2cccc3c2O[C@@H](CN(C)C(=O)Nc2ccc4c(c2)OCO4)[C@H](C)CN([C@H](C)CO)C3=O)cc1 | -6 | 0.3 | -7 | -0.3
O=C(NCCCN1CCOCC1)C(=O)NC1CC1 | -11 | -0.2 | / | /
Cc1ccc(S(=O)(=O)N(C)C[C@H]2OCCCC[C@@H](C)Oc3ccc(NC(=O)c4ccccc4)cc3C(=O)N([C@H](C)CO)C[C@@H]2C)cc1 | 22 | / | / | -0.34
C[C@H]1CN([C@@H](C)CO)C(=O)c2cc(NS(C)(=O)=O)ccc2O[C@H]1CN(C)S(=O)(=O)c1ccc(F)cc1 | -5 | -0.2 | / | -0.4
COc1ccc(NC(=O)Nc2ccc3c(c2)C(=O)N([C@@H](C)CO)C[C@H](C)[C@H](CN(C)S(=O)(=O)c2ccc(OC)cc2)O3)cc1 | -29 | -1.3 | / | -0.22
C[C@@H]1CN([C@H](C)CO)C(=O)c2cccc(NC(=O)Nc3cccc4ccccc34)c2O[C@H]1CN(C)C(=O)Nc1ccccc1 | 1 | -1.4 | 19 | 0.43
c1ccc(C2OCC3OC(c4ccccc4)OC3CO2)cc1 (stereo unspecified) | -5 | 0.7 | / | -1

Retrieved one by one from the list above:
SMILES | MITF inh | PD-1 reversal | Hedgehog inh | YB-1 expr inh
C[C@@H]1CN([C@@H](C)CO)C(=O)c2cccc(NC(=O)c3ccc(-c4nccs4)cc3)c2O[C@H]1CN(C)Cc1ccc(C(=O)Nc2ccccc2N)cc1 | 38 | -0.7 | / | -0.5
C[C@H]1CN([C@@H](C)CO)C(=O)c2cc(NS(C)(=O)=O)ccc2O[C@H]1CN(C)S(=O)(=O)c1ccc(F)cc1 | -5 | -0.2 | / | -0.4

Later entries.
SMILES | MITF inh | PD-1 reversal | Hedgehog inh | YB-1 expr inh
C[C@@H]1CN([C@@H](C)CO)C(=O)Cc2cc(NC(=O)Nc3ccc(F)cc3)ccc2O[C@@H]1CN(C)S(=O)(=O)c1ccc(F)cc1 | 0 | -0.7 | -18 | 0.15
C[C@@H]1CN([C@@H](C)CO)C(=O)c2cc(NC(=O)Nc3ccc(C(F)(F)F)cc3)ccc2O[C@@H]1CN(C)S(=O)(=O)c1ccc(F)cc1 | 39 | -2.7 | 10 | -0.14
Cc1ccc(S(=O)(=O)N(C)C[C@@H]2Oc3c(NC(=O)Nc4ccc(F)cc4)cccc3C(=O)N([C@H](C)CO)C[C@@H]2C)cc1 | 55 | / | 117* | -0.17
C[C@H]1CN([C@@H](C)CO)C(=O)c2cc(NS(=O)(=O)c3ccc(F)cc3)ccc2O[C@@H]1CN(C)Cc1ccc(C(F)(F)F)cc1 | -5 | -0.7 | -4 | 0.037
Cc1cc(=O)[nH]c(SCc2nc3ccccc3[nH]2)n1 | 3 | -0.4 | -23 | 0.22
COC(=O)CCC(=O)NC(=S)Nc1c(C)cccc1C | -31 | 2.7 | / | /
COc1ccc(S(=O)(=O)Nc2ccc3c(c2)C(=O)N([C@H](C)CO)C[C@@H](C)[C@@H](CN(C)C(=O)Nc2c(C)noc2C)O3)cc1 | 0 | 1.8 | -13 | -0.14
CNC[C@@H]1Oc2ccc(NC(=O)c3ccncc3)cc2CC(=O)N([C@H](C)CO)C[C@@H]1C | -2 | -0.6 | -36 | -0.19
C[C@@H]1CCCCO[C@H](CN(C)C(=O)Nc2ccc3c(c2)OCO3)[C@@H](C)CN([C@H](C)CO)C(=O)c2cc(NC(=O)Nc3ccccc3)ccc2O1 | -12 | 0.6 | / | 0.041
O=C(CN1CCc2ccccc21)Nc1scc2c1c(=O)oc1ccccc12 | -4 | 0.4 | 6 | -0.053
Cc1noc(C)c1S(=O)(=O)Nc1ccc2c(c1)CC(=O)N([C@H](C)CO)C[C@@H](C)[C@@H](CN(C)C(=O)Nc1ccccc1)O2 | -12 | / | -22 | -0.017
C[C@@H]1CN([C@@H](C)CO)C(=O)c2cccc(NC(=O)CCCCCC(=O)Nc3ccccc3N)c2O[C@H]1CN(C)Cc1ccncc1 | -23 | 0.0 | / | -0.064

Gathered by group: the entries above with a CF3 group (4)
SMILES | MITF inh | PD-1 reversal | Hedgehog inh | YB-1 expr inh
C[C@@H]1CN([C@H](C)CO)C(=O)c2cc(NC(=O)Nc3ccc(C(F)(F)F)cc3)ccc2O[C@@H]1CN(C)S(=O)(=O)c1ccc(Cl)cc1 | 34 | -1.5 | 13 | 0.31
C[C@H]1CN([C@@H](C)CO)C(=O)c2cccc(NC(=O)Nc3ccc(C(F)(F)F)cc3)c2O[C@@H]1CN(C)S(=O)(=O)c1cccs1 | -2 | 0.8 | -6 | -0.37
C[C@@H]1CN([C@@H](C)CO)C(=O)c2cc(NC(=O)Nc3ccc(C(F)(F)F)cc3)ccc2O[C@@H]1CN(C)S(=O)(=O)c1ccc(F)cc1 | 39 | -2.7 | 10 | -0.14
C[C@H]1CN([C@@H](C)CO)C(=O)c2cc(NS(=O)(=O)c3ccc(F)cc3)ccc2O[C@@H]1CN(C)Cc1ccc(C(F)(F)F)cc1 | -5 | -0.7 | -4 | 0.037

Other compounds.
SMILES | MITF inh | PD-1 reversal | Hedgehog inh | YB-1 expr inh
COc1ccc(NC(=O)Nc2ccc3c(c2)CC(=O)N([C@@H](C)CO)C[C@H](C)[C@H](CN(C)Cc2ccc(C(=O)Nc4ccccc4N)cc2)O3)cc1 | 26 | -2.5 | / | 0.28
Cc1ccc(C(C)C)c(OCCSc2nc3ncnc(N)c3[nH]2)c1 | 52 | -0.9 | / | /
C[C@H](CO)N1C[C@H](C)[C@H](CN(C)S(=O)(=O)c2ccccc2)Oc2ccc(NC(=O)CCC(F)(F)F)cc2CC1=O | 0 | 2.1 | ? | -0.34
C[C@@H]1CN([C@@H](C)CO)C(=O)c2cccc(NS(=O)(=O)c3ccc(F)cc3)c2O[C@@H]1CN(C)S(=O)(=O)c1cn(C)cn1 | -11 | -1.3 | -4 | -0.026
CC(C)NC(=O)Nc1ccc2c(c1)CC(=O)N([C@H](C)CO)C[C@H](C)[C@H](CN(C)S(=O)(=O)c1ccc(F)cc1)O2 | -12 | / | / | -0.18
O=[n+]1cc(-c2ccc(F)cc2)n([O-])c2c1CCC2 | -23 | 0.3 | -30 | 0.41
C[C@@H]1CN([C@@H](C)CO)C(=O)c2cc(NS(=O)(=O)c3ccccc3)ccc2O[C@@H]1CN(C)C | -7 | 2.1 | / | -0.23
COc1ccc(C(=O)O[C@H]2CC(C)=CC[C@]3(C)[C@@H]2[C@](O)(C(C)C)C[C@@H]3O)cc1 | 0 | 4.3 | -10 | -0.43
Cc1ccc(S(=O)(=O)N(C)C[C@@H]2Oc3c(NC(=O)c4nc5ccccc5s4)cccc3C(=O)N([C@@H](C)CO)C[C@@H]2C)cc1 | -4 | / | -55 | -0.42
C[C@H]1CN([C@@H](C)CO)C(=O)Cc2cc(NC(=O)Nc3cccc4ccccc34)ccc2O[C@@H]1CN(C)S(=O)(=O)c1ccccc1 | 1 | -0.6 | -13 | 0.3
CCOC(=O)c1csc(NC(=O)c2ccc(S(=O)(=O)N(CC)CC)cc2)n1 | 19 | 0.2 | / | -0.12
C[C@@H]1CN([C@H](C)CO)C(=O)c2cc(NS(=O)(=O)c3cccs3)ccc2O[C@@H]1CN(C)Cc1ccccc1 | -2 | / | 7 | 0.28
COc1ccc(S(=O)(=O)Nc2ccc3c(c2)C(=O)N([C@H](C)CO)C[C@H](C)[C@H](CN(C)C(=O)Nc2ccc(C(F)(F)F)cc2)O3)cc1 | 15 | -1.8 | / | 0.17
Cc1ccc(S(=O)(=O)Nc2ccc3c(c2)C(=O)N([C@H](C)CO)C[C@H](C)[C@@H](CN(C)Cc2ccc4c(c2)OCO4)O3)cc1 | -8 | -0.1 | 7 | -0.16
Cc1noc(C)c1NC(=O)N(C)C[C@H]1Oc2c(NS(C)(=O)=O)cccc2C(=O)N([C@H](C)CO)C[C@H]1C | -6 | -0.1 | -44 | -0.067
C[C@H]1CN([C@@H](C)CO)C(=O)c2cccc(NC(=O)Nc3cccc4ccccc34)c2O[C@H]1CN(C)CC1CC1 | 4 | 0.6 | -23 | 2.8
COc1ccc(CN(C)C[C@@H]2Oc3ccc(NC(=O)Nc4ccc5c(c4)OCO5)cc3C(=O)N([C@@H](C)CO)C[C@H]2C)cc1 | -11 | 0.8 | 12 | 0.36

Source: PubChem BioAssay
